Screening data deposited in PubChem by National Center for Advancing Translational Sciences (NCATS).
miR-21 reporter: miR-21 reporter, rising signal; Potency, µM (doses to about 38.3 µM), inactives show at the highest dose reporter change, positive = more light; HeLa miR-21 FLuc reporter, luciferase, 48 h; 340,000 tested, under 10 active; active = well fitted rising curve with a large enough effect; inconclusive = small, poorly fitted or top-dose-only effect; inactive = no such curve, though single readings can be large or run the other way;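 also: % of control where 0% means no effect; miR-21 action dims this reporter so a rising signal means less miR-21 action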
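Compounds were titrated across several concentrations (up to approximately 40 uM) and incubated 48 hours with HeLa miR-21-FLuc reporter cells (miR-21 target sequence downstream of FLuc, endogenous miR-21). Readout was firefly luciferase luminescence after lytic detection reagent.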
Rango complex inh: inhibitors of Rango-importin beta complex formation | Potency, µM (doses to about 92.2 µM), inactives show at the top dose inhibition of complex formation | AID 540263 | Q14974 | 0.031% of 340,000 active | Rango CFP/YFP FRET sensor + importin beta, 45 min; active = rising FRET ratio curve, often small or poorly fitted; inconclusive = mostly compound fluorescence or quenching in the first reads; inactive = flat curves in all reads;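 also: potency is read from the fitted curve at half-maximal effect; 0% = DMSO wells and 100% = buffer wells lacking importin beta; nearly all actives have a fitted effect of over 15% in size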
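FRET biosensor Rango (snurportin 1 IBB between N-terminal EYFP and C-terminal Cerulean), 50 nM in PBS/1 mM DTT/0.02% Tween-20/0.1% BSA, preincubated 5 min RT with compound; 0.125 microM importin beta added, 45 min RT, CFP/YFP FRET ratio read.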
Rango dissoc inh: prevents RanGTP from dissociating the Rango-importin beta complex | O95149+P62826 | 0.071% of 340,000 active | Potency, µM (titrated, usually from 46.1 µM), for inactives: at the top dose activity change, negative = inhibition | Biochemical FRET Rango-importin beta, RanGTP-induced dissociation; active means falling FRET ratio curve, often poorly fitted, with flat reads before Ran was added; inconclusive means other falling curves, or compound fluorescence or quenching; inactive means flat or rising ratio curve;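 also: potency is read from the fitted curve at half-maximal effect; % of control where 0% means no effect; nearly all actives have a fitted effect of over 45% in size; -100% = wells without RanGTP and RCC1; the record marks most hits as doubtful in a second field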
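Recombinant Rango FRET biosensor (EYFP–snurportin 1 IBB–cerulean CFP10) at 0.1 uM premixed with 0.25 uM importin beta in PBS, 1 mM DTT, 0.02% Tween-20, 0.1% BSA. Compound added 5 min; RanGTP-RCC1 (0.6 uM Ran, 2 mM GTP, 0.2 uM RCC1) then triggers release, read at 45 min.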
GLA inh pH 4.5: inhibitors of human alpha-galactosidase A at pH 4.5 | purified enzyme, 4-MU-alpha-Gal fluorescence, pH 4.5 | activity change, negative = inhibition, % at 105 µM | P06280 | 230,000 tested, under 10 active; inconclusive = small, poorly fitted or top-dose-only inhibition, or a rising curve; inactive = flat fitted curve, though single readings scatter; no compound was filed as active;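 also: 0% = full activity with enzyme and -100% = basal without enzyme; dose as in the result columns while the protocol names 77 µM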
Target sequence (P06280 whole entry, looked up): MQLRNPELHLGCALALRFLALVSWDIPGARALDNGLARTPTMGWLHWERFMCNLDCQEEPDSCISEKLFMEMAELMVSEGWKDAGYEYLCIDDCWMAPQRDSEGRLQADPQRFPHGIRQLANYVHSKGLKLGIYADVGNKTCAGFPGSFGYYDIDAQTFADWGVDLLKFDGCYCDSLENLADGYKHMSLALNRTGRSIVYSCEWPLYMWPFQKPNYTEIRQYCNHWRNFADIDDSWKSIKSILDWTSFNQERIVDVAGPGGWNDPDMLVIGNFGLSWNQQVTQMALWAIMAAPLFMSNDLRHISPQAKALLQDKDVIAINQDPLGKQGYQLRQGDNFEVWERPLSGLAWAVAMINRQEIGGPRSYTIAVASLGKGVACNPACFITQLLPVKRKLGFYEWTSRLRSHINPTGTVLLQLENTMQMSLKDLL
An asterisk follows results filed as active; ? = inconclusive; / = no result given.

SMILES	miR-21 reporter	Rango complex inh	Rango dissoc inh	GLA inh pH 4.5
O=C(CN1C(=O)S/C(=C\c2ccccc2Cl)C1=O)NCCCn1ccnc1	1%	0.4%	19%	/
CC(C)c1ccc(OCC(=O)NC(=S)Nc2ccc3c4c(cccc24)CC3)cc1	0%	0.8%	-8%	-1
COCCn1nnnc1C(CC(C)C)N1CCN(c2ccccc2)CC1 (configuration not stated)	1%	-0.6%	1%	-2
CCN1CCCC1CN(Cc1cc2c(C)cc(C)cc2[nH]c1=O)C(=O)NC1CCCCC1 (configuration not stated)	-32%	-2.8%	-5%	2
CC(C)C[C@H](N)C(=O)N1CCC(C(=O)N[C@H](C(=O)NCc2ccc(F)cc2)C(C)C)CC1	-2%	-2.9%	-4%	/
Nc1nnc(-c2cccc([N+](=O)[O-])c2)o1	0%	0.1%	-1%	2
CN1CCN(c2ccc([N+](=O)[O-])c(-n3nc(-c4ccccc4)c4ccccc4c3=O)c2)CC1	-29%	-3.5%	-2%	-6
COc1ccc(S(=O)(=O)CC(=O)c2cc3cc(Br)ccc3oc2=O)cc1	0%	?	-26%	/
Cc1cc(CSc2ccccc2)ccc1NC(=O)c1ccc(Cl)c([N+](=O)[O-])c1	4%	-0.1%	24%	-22
COc1ccccc1N1CCN(C(=O)CN(c2ccccc2OC)S(=O)(=O)c2ccccc2)CC1	2%	0.7%	-7%	-8
O=C(O)C1CC=CCC1C(=O)N1CCCC1 (configuration not stated)	-1%	-0.3%	0%	-6
O=C(CN1C(=O)/C(=C\c2cccc(Br)c2)Oc2ccccc21)NCC1CCCO1 (configuration not stated)	1%	3.3%	17%	/
CC(C)Cc1nnc(NC(=O)CCC(=O)N2CCN(c3ccc(Cl)cc3)CC2)s1	-1%	-3.1%	13%	/
O=C(COC(=O)c1ccccc1Br)NCc1cccs1	/	-4.0%	-1%	/
CC(=O)NC(=C(Cl)Cl)S(=O)(=O)c1ccccc1	?	-0.6%	-10%	-3
O=C(NN=C1C2CC3CC1CC(Cl)(C3)C2)c1ccccn1	-53%	3.0%	-6%	4
Cc1c(OCC(=O)N2CCC[C@@H]2C(=O)O)ccc2c3c(c(=O)oc12)CCC3	0%	3.7%	?	/
Cc1nnsc1SCCNC(=O)Nc1ccc(Cl)cc1	-20%	1.1%	-9%	-7
CSc1ccc(/C=N/N2CCN(Cc3ccc(C)cc3C)CC2)cc1	3%	0.8%	13%	-4
CC(=O)Nc1ccc(SC[C@H](CC(C)C)N2CCN(CC(C)C)CCC2=O)cc1	6%	-0.7%	28%	-3

Arranged by SMILES length (ascending): 4 of the compounds above.
SMILES	miR-21 reporter	Rango complex inh	Rango dissoc inh	GLA inh pH 4.5
O=C(O)C1CC=CCC1C(=O)N1CCCC1 (configuration not stated)	-1%	-0.3%	0%	-6
O=C(NN=C1C2CC3CC1CC(Cl)(C3)C2)c1ccccn1	-53%	3.0%	-6%	4
CC(C)c1ccc(OCC(=O)NC(=S)Nc2ccc3c4c(cccc24)CC3)cc1	0%	0.8%	-8%	-1
CN1CCN(c2ccc([N+](=O)[O-])c(-n3nc(-c4ccccc4)c4ccccc4c3=O)c2)CC1	-29%	-3.5%	-2%	-6

Next section.
SMILES	miR-21 reporter	Rango complex inh	Rango dissoc inh	GLA inh pH 4.5
COc1ccc(C)cc1NC(=O)c1cnc2scc(C)n2c1=O	-6%	4.7%	8%	10
C#CC(C)(O)C1CC(CC(=O)O)C1(C)C (configuration not stated)	/	-2.6%	-18%	/
CC(=O)c1ccccc1OCCCCN1CCCCC1	0%	0.2%	5%	/
N#C/C(=C\c1ccc(F)cc1)c1n[nH]c(Cn2cncn2)n1	-1%	0.0%	-14%	7
Cc1ccc(S(=O)(=O)Nc2ccc(-n3c(C)nc4ccccc4c3=O)cc2)cc1	/	?	-1%	/
COC(=O)c1ccccc1NC(=O)/C=C/c1ccco1	-24%	2.8%	-5%	-4
CC(C)C(=O)NC(C)C(c1cccs1)N1CCOCC1 (configuration not stated)	2%	1.6%	-7%	-6
O=C(Nc1ccc(N2CCCCC2)cc1)c1ccc(F)cc1F	-37%	6.1%	-16%	-4
OC(CN1C2=NCCN2c2ccccc21)c1ccccc1 (configuration not stated)	-2%	-2.0%	14%	5
O=C(NOCc1ccccc1)c1ccc(Cl)cc1	/	1.0%	-1%	/
CCOc1ccc2ccccc2c1/C=N/NC(=O)CNC(=O)C(c1ccccc1)c1ccccc1	-7%	-0.3%	-9%	-2
CC(=O)c1ccc(NC(=O)C2CCN(S(=O)(=O)c3ccc4c(c3)N(C(C)=O)CCO4)CC2)cc1	2%	0.0%	-1%	/
O=C(C[C@H]1C(=O)N(CCc2ccccc2)C[C@@H]1Cc1ccccc1)Nc1ccccc1	11%	-2.3%	8%	/
CCc1ccc(NC(=S)N2CCCC(C(F)(F)F)C2)cc1 (configuration not stated)	-23%	1.8%	0%	-10
C(#CC1CCCC1)c1ccc2c(c1)COc1c3ccccc3nn1-2	-51%	-2.6%	17%	4
CCCCn1c(SCC(N)=O)nnc1-c1cc(OC)c(OC)c(OC)c1	0%	/	/	5
CC(NCC(=O)Nc1cc(S(=O)(=O)N2CCOCC2)ccc1Cl)c1ccc(Cl)cc1Cl (configuration not stated)	/	0.0%	8%	/
O=C(c1cc(COc2ccc(F)cc2Cl)on1)N1CCCC(c2ccccc2)C1 (configuration not stated)	-5%	0.2%	13%	-15
CCCOP(=O)(OCCC)c1nc(-c2ccccc2)oc1NCc1ccccc1	-10%	-3.1%	-11%	-1
CSC(=NC#N)N1CCN(c2ccc([N+](=O)[O-])cc2)CC1	0%	-0.7%	4%	-2

Complete entries from above. Screens in order: miR-21 reporter	Rango complex inh	Rango dissoc inh	GLA inh pH 4.5
Listed for `CC(=O)c1ccc(NC(=O)C2CCN(S(=O)(=O)c3ccc4c(c3)N(C(C)=O)CCO4)CC2)cc1` → 2%	0.0%	-1%	/
Listed for `CC(C)C(=O)NC(C)C(c1cccs1)N1CCOCC1` (configuration not stated) → 2%	1.6%	-7%	-6

Further structures follow.
SMILES	miR-21 reporter	Rango complex inh	Rango dissoc inh	GLA inh pH 4.5
CN1c2ccccc2C(O)=C(C(=S)Nc2ccc(F)c(Cl)c2)S1(=O)=O	19%	-1.0%	2%	-13
O=S(=O)(Nc1cc(Cl)ccn1)c1ccc(Cl)cc1	-4%	0.5%	0%	16
CC(C)CN(C(=O)c1ccc(S(=O)(=O)N2CCCC2)cc1)C1CCS(=O)(=O)C1 (configuration not stated)	/	2.2%	1%	/
Cc1cc(Oc2ccccc2)nc(SCC(=O)Nc2ccccc2)n1	9%	0.9%	-22%	9
O=C(Nc1ccc(C(=O)NCCCN2CCN(c3ccccc3)CC2)cc1)C1=CSCCO1	3%	1.0%	-3%	/
Cc1[nH]c2ccccc2c1C(=O)CSc1nc2ccccc2[nH]1	-5%	0.0%	1%	-13
Cc1nnc(OCC(=O)NCCC2=CCCCC2)c2ccccc12	-3%	0.0%	-2%	7
CC1(C)Cc2c(sc3c2c(N)nc(=S)n3Cc2ccc(Br)cc2)CO1	-5%	2.1%	14%	0
O=C(c1cc2nc(-c3ccco3)cc(C(F)(F)F)n2n1)N1CCN(c2ccc(F)cc2)CC1	-1%	?	-8%	-9
COc1ccc(NS(=O)(=O)c2ccc(NC(=S)NC(=O)C(C)C)cc2)cc1	13%	1.2%	11%	2
Cc1ccc(C(C#N)c2ccc3c(C(F)(F)F)cc(C(F)(F)F)nc3n2)cc1 (configuration not stated)	10%	-6.1%	-2%	3
O=C(CN1CC(=O)Oc2ccccc21)NCc1ccco1	-20%	-1.9%	1%	-3
c1ccc(C(Cc2nc(-c3ccncc3)no2)c2ccccc2)cc1	15%	0.6%	7%	-24
O=C(Nc1ccccc1C(=O)N1CCNCC1)c1ccco1	-7%	/	/	3
Ic1ccc(N2CCN(Cc3c[nH]c4ncccc34)CC2)cc1	/	0.0%	1%	-11
COc1ccc(C(=O)OCC(=O)NCCN2C(=O)CSC2=O)cc1[N+](=O)[O-]	/	-2.6%	0%	/
CCOc1cc(/C=C\[N+](=O)[O-])ccc1OCC(=O)N1CCOCC1	-1%	-5.4%	-17%	-7
C/C(CC(=O)Nc1ccc(C)c(Cl)c1)=N\NC(=O)Cc1ccccc1	-15%	0.9%	-10%	-2
Cc1ccc(C)c(NC(=O)c2cc(-c3cc(C)ccc3O)n[nH]2)c1	-63%	-3.1%	7%	/
Cn1c(N)c(C(=O)CSc2n[nH]c(-c3ccccc3)n2)c(=O)n(C)c1=O	/	-1.9%	8%	/
O=C(NCc1ccc(Cl)cc1)N1CCN(S(=O)(=O)c2ccccc2)CC1	10%	-1.9%	8%	/
CCOC(=O)Nc1cc2c(cc1C(C)=O)OCO2	0%	1.1%	-10%	8
CCOC(=O)c1cccc(N2C(=O)c3ccccc3S2(=O)=O)c1	-15%	-1.6%	14%	2
CCN(CC)S(=O)(=O)c1cc(C(=O)OCC(=O)c2ccc3c(c2)NC(=O)CO3)ccc1F	1%	-1.5%	-8%	-6
COc1ccc(C(=O)NCCS(=O)(=O)NCc2ccc3c(c2)OCO3)cc1	/	-0.1%	14%	/
O=C(NNC(=O)c1ccc(SCC2CCCO2)c([N+](=O)[O-])c1)c1ccc(Cl)c([N+](=O)[O-])c1 (configuration not stated)	1%	4.5%	-9%	5
O=C(COC(=O)c1ccc(Cl)c([N+](=O)[O-])c1)Nc1ccccc1OC(F)F	1%	-0.6%	9%	0
N#Cc1ccccc1OCCN1C(=O)c2ccccc2C1=O	-41%	5.9%	0%	-5
CCc1ccc(CNC(=O)C2CCCN(c3nc4ccccc4o3)C2)cc1 (configuration not stated)	-4%	2.4%	-1%	5
CCn1c(Oc2ccccc2F)nc2c1c(=O)n(C)c(=O)n2C	19%	-0.7%	12%	/
CC(=O)c1ccc(N2CCN(c3ccc(S(=O)(=O)NCCN(C)C)cc3[N+](=O)[O-])CC2)cc1	14%	-0.4%	10%	-1
O=C(Nc1ccc2nc3ccccc3nc2c1)c1ccccc1	-34%	?	?	-1
Cc1ccc(/C=N/NC(=O)c2nnn(-c3nonc3N)c2-c2ccccc2)o1	-3%	-2.0%	-6%	/
CN(C)S(=O)(=O)c1ccc(C(=O)NCc2ccccn2)cc1	-1%	?	14%	-11
O=C(O)Cc1coc2cc3c(cc12)CCC3	-1%	0.6%	9%	-15
CC(C)(C)OC(=O)N1CCC[C@H]1C(=O)O	0%	1.3%	1%	/
CCOC(=O)c1ccccc1NS(=O)(=O)c1ccccc1F	-15%	7.0%	1%	3
CC(=O)C1=C(O)C(=O)N(c2ccc(O)cc2)C1c1ccc([N+](=O)[O-])cc1 (configuration not stated)	-2%	?	-13%	-5
CCn1c(SCC(=O)Nc2nc(C)c(C)s2)nnc1-c1ccco1	0%	6.2%	-9%	-2
Cc1ccc(OCCOC(=O)c2cc(S(=O)(=O)N3CCCCC3)ccc2N2CCOCC2)cc1	/	-3.9%	-3%	/

Molecules shown so far that contain a thiophene ring, fused or not (3):
SMILES	miR-21 reporter	Rango complex inh	Rango dissoc inh	GLA inh pH 4.5
O=C(COC(=O)c1ccccc1Br)NCc1cccs1	/	-4.0%	-1%	/
CC(C)C(=O)NC(C)C(c1cccs1)N1CCOCC1 (configuration not stated)	2%	1.6%	-7%	-6
CC1(C)Cc2c(sc3c2c(N)nc(=S)n3Cc2ccc(Br)cc2)CO1	-5%	2.1%	14%	0

Further structures follow:
SMILES	miR-21 reporter	Rango complex inh	Rango dissoc inh	GLA inh pH 4.5
O=Nc1c(O)n(Cc2ccc(Cl)cc2Cl)c2ccccc12	-3%	-0.9%	-12%	-12
O=C(CCl)Nc1ncc(S(=O)(=O)c2ccc([N+](=O)[O-])cc2)s1	/	5.9%	-24%	/
C=CCSc1nc(NC)c2sccc2n1	-14%	2.6%	4%	-8
COc1ccccc1OCC(=O)OCC(=O)NC1CCCCC1	/	-2.2%	2%	/
COc1cc(C(=O)Oc2cc(N)n(S(=O)(=O)c3ccccc3)n2)cc(OC)c1OC	0%	5.4%	22%	/
COc1ccc(N(C(=O)c2ccncc2)S(=O)(=O)c2cccs2)cc1	-4%	-0.7%	16%	13

This is a subset; the hit share may differ from the screen's.
